Screening data deposited in PubChem by National Center for Advancing Translational Sciences (NCATS).
Rango-impB inh: inhibitors of Rango-importin beta complex formation | AID 540263 | 340,000 compounds, 0.031% hits | Q14974 | Potency, µM (highest dose often 92.2 µM), inactives show at the highest dose inhibition of complex formation | Rango CFP/YFP FRET sensor + importin beta, 45 min; active = rising FRET ratio curve, often small or poorly fitted; inconclusive = mostly compound fluorescence or quenching in the first reads; inactive = flat curves in all reads;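 also: potency is read from the fitted curve at half-maximal effect; 0% = DMSO wells and 100% = buffer wells lacking importin beta; nearly all actives have a fitted effect of over 15% in size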
Target sequence (Q14974 whole entry, looked up): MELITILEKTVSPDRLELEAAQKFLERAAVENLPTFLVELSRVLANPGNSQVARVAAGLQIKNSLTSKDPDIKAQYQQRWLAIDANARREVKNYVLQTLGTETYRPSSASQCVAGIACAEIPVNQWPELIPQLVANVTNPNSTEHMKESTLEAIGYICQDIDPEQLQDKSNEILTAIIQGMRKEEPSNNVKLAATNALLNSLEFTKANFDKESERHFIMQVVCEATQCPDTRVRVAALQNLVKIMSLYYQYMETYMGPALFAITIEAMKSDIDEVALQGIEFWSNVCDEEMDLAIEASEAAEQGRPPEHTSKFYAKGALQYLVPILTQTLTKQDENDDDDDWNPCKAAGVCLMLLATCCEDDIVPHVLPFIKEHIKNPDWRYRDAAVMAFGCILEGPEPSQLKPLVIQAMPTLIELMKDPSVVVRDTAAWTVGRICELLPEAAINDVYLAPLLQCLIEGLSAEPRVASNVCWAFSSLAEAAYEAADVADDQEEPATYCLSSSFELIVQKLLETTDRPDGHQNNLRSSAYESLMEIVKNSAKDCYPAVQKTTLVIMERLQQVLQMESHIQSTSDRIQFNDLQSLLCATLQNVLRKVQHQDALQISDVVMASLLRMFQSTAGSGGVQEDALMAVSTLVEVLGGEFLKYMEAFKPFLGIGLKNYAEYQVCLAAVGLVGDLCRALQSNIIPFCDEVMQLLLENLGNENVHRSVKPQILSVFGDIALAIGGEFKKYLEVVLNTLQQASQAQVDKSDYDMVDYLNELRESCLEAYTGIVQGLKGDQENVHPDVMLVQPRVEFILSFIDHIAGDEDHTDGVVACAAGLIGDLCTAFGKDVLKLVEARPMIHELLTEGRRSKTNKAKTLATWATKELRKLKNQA
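FRET biosensor Rango (snurportin 1 IBB between N-terminal EYFP and C-terminal Cerulean), 50 nM in PBS/1 mM DTT/0.02% Tween-20/0.1% BSA, preincubated 5 min RT with compound; 0.125 microM importin beta added, 45 min RT, CFP/YFP FRET ratio read.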
GLA inh pH 4.5: inhibitors of human alpha-galactosidase A at pH 4.5; activity change, negative = inhibition, % at 105 µM; P06280; 230,000 tested, under 10 active; purified enzyme, 4-MU-alpha-Gal fluorescence, pH 4.5; inconclusive = small, poorly fitted or top-dose-only inhibition, or a rising curve; inactive = flat fitted curve, though single readings scatter; no compound was filed as active;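 also: 0% = full activity with enzyme and -100% = basal without enzyme; dose as in the result columns while the protocol names 77 µM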
miR-21 reporter: miR-21 reporter, rising signal; HeLa miR-21 FLuc reporter, luciferase, 48 h; Potency, µM (series often up to 38.3 µM), for the others: top-dose reporter change, positive = more light; 340,000 tested, under 10 active; AID 2288; active = well fitted rising curve with a large enough effect; inconclusive = small, poorly fitted or top-dose-only effect; inactive = no such curve, though single readings can be large or run the other way;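 also: % of control where 0% means no effect; miR-21 action dims this reporter so a rising signal means less miR-21 action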
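Compounds were titrated across several concentrations (up to approximately 40 uM) and incubated 48 hours with HeLa miR-21-FLuc reporter cells (miR-21 target sequence downstream of FLuc, endogenous miR-21). Readout was firefly luciferase luminescence after lytic detection reagent.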
Rango dissoc inh: inhibitors of RanGTP-induced Rango-importin beta complex dissociation; O95149+P62826; Biochemical FRET Rango-importin beta, RanGTP-induced dissociation; Potency, µM (titrated, usually from 46.1 µM), without a hit: at the top dose activity change, negative = inhibition; 340,000 compounds, 0.071% hits; active means falling FRET ratio curve, often poorly fitted, with flat reads before Ran was added; inconclusive means other falling curves, or compound fluorescence or quenching; inactive means flat or rising ratio curve;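 also: potency is read from the fitted curve at half-maximal effect; % of control where 0% means no effect; nearly all actives have a fitted effect of over 45% in size; -100% = wells without RanGTP and RCC1; the record marks most hits as doubtful in a second field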
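Rango/importin beta premix (0.1/0.25 uM final), PBS + 1 mM DTT + 0.02% Tween-20 + 0.1% BSA; cpd 5 min RT; FRET pre-read; + RanGTP-RCC1 (0.6 uM Ran, 2 mM GTP, 0.2 uM RCC1); 45 min RT; FRET post-read, ex 430, em 486/530 nm.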
The depositor's hits bear a star; ? = inconclusive; . = not tested or not shown; & = joins results of further samples. Only part of the results is shown; the hit share may differ from the screen's.

SMILES	Rango-impB inh	GLA inh pH 4.5	miR-21 reporter	Rango dissoc inh
Cn1c(CSCC(=O)Nc2ccccc2)nnc1SCc1ccccc1	0.0%	-4.3	-6.8%	-0.1%
CN(C(=O)c1cccnc1)c1nc(-c2ccccc2)cs1	4.0%	-14.6	-31.9%	-0.6%
Cc1cc(=O)oc2c(CN3CC(C)OC(C)C3)c(O)c(Cl)cc12 (stereo not given)	?	?	0.0%	-23.8%
COc1ccccc1NC(=O)N1CCC(C(=O)c2ccc(Cl)cc2)CC1	4.5%	.	1.2%	1.6%
CCn1c2c(c3cc(C(=O)O)ccc31)CCCC2=O	0.3%	-18.3	-5.5%	0.5%
CCOC(=O)C1CCN(c2ncnc3c2oc2ccc(Br)cc23)CC1	-0.3%	-3.6	-3.6%	-4.3%
Cc1cc(C)n2nc(CCCCc3nc4nc(C)cc(C)n4n3)nc2n1	.	-4.1	-1.8%	.
CCN1CCN(CC(=O)N2c3ccccc3Sc3ccccc32)CC1	1.2%	.	1.6%	-4.9%
O=C1CC(c2ccco2)Cc2nc(N3CCc4ccccc4C3)ncc21 (stereo not given)	0.2%	1.4	-15.7%	-17.9%
COc1ccc(CNc2nnnn2C)c(OC)c1	-4.6%	.	0.2%	?
Cc1nn(Cc2ccccc2)c(C)c1NC(=O)c1cc(-c2ccco2)on1	?	-6.2	-2.4%	6.7%
CC(OC(=O)Cc1coc2ccc3ccccc3c12)C(=O)NC(N)=O (stereo not given)	-0.9%	-2.1	-4.8%	-10.2%
COc1cc(C2C(C#N)=C(N)Oc3cc(C)oc(=O)c32)ccc1OC(=O)N1CCOCC1 (stereo not given)	1.1%	-7.9	-6.8%	0.2%
Cc1nonc1CN(C)C(=O)CC1C(=O)NCCN1Cc1ccc(F)c(F)c1 (stereo not given)	0.3%	-2.8	?	-4.6%
N#Cc1sc(=O)[nH]c1Cl	-2.6%	.	.	-11.8%

One compound at a time, from the list above. Values in the order: Rango-impB inh, GLA inh pH 4.5, miR-21 reporter, Rango dissoc inh
CN(C(=O)c1cccnc1)c1nc(-c2ccccc2)cs1 is entered as 4.0%, -14.6, -31.9%, -0.6%
COc1ccc(CNc2nnnn2C)c(OC)c1 is entered as -4.6%, ., 0.2%, ?

New compounds follow:
SMILES	Rango-impB inh	GLA inh pH 4.5	miR-21 reporter	Rango dissoc inh
O=C(O)CCCCCNS(=O)(=O)c1ccc2c(c1)OCCO2	-0.6%	6.4	0.1%	6.2%
CC(OC(=O)CCN1C(=O)C2CC=CCC2C1=O)C(=O)Nc1ccc(F)cc1 (stereo not given)	7.2%	.	.	4.6%
Nc1c(C(=O)c2ccc(Cl)cc2)sc2nc3c(cc12)CCC3	?	-11.6	-57.9%	?
CC(NC(=O)COc1ccc(S(=O)(=O)N2CCCC2)cc1)c1ccccc1 (stereo not given)	-2.8%	.	1.2%	-4.4%
O=C(NCC(=O)N(c1ccccc1)C(C(=O)NCC1CCCO1)c1ccccc1)c1ccco1 (stereo not given)	6.4%	-0.7	3.3%	-3.9%
CCn1c(SC(C)C(=O)O)nnc1-c1cccnc1 (stereo not given)	-4.5%	-13.1	0.9%	-15.9%
CC(=O)c1sc2nc(SCC(=O)N3CCCCC3)[nH]c(=O)c2c1C	?	-2.8	-1.8%	?
CC(=O)c1ccccc1NC(=O)COC(=O)c1cc2ccccc2[nH]1	0.1%	.	.	0.3%
COc1ccc(-c2c(C#Cc3ccc(N(C)C)cc3)c3ccccc3n2C)cc1	?	.	.	4.0%
CN(c1ccccc1)S(=O)(=O)c1cccc(NC(=O)CC(C)(C)C)c1	-0.2%	-0.4	18.9%	-3.4%
COc1ccc(C2NC(=O)Cc3cc(OC)c(OC)cc32)cc1OC (stereo not given)	-2.5%	3.9	3.5%	-8.6%
Cc1cc(C)c(C)c(S(=O)(=O)N2CCC(C(=O)OCC(=O)N3c4ccccc4NC(=O)C3(C)C)CC2)c1C	-4.5%	-13.8	3.3%	-20.7%
COc1ccc2c(c1)C(=O)C(=O)N2	-0.7%	-1.4	-15.6%	-5.9%
CCN(CC)c1ccc(NC(=O)C2CC3CCC2C3)cc1 (stereo not given)	5.3%	4.4	-60.6%	10.4%
CCC(=Nc1ccccc1)C1=C(O)CCCC1=O	4.0%	-0.3	0.0%	-3.3%
CS(=O)(=O)Nc1ccccc1C(=O)Nc1cc(Cl)cc(Cl)c1	-0.6%	-1.2	2.6%	-13.0%
CC(=O)N1CCC2(CC1)C/C(=N\NC(=S)Nc1ccccc1F)c1cc(O)ccc1O2	?	-11.8	-15.3%	-17.6%
O=C(CCc1nnc(-c2ccccc2)o1)NC1CCCCC1	-7.1%	3.6	-51.9%	21.1%
Cc1ccc(NC(=O)Cc2cccs2)cc1Cl	0.3%	.	-37.4%	1.0%
COC(=O)c1ccccc1NC(=O)C1CC=CCC1C(=O)O (stereo not given)	4.0%	-8.2	-0.6%	2.0%
CCN(CC)CCN1C(=O)c2ccccc2NC1c1ccc(F)cc1 (stereo not given)	-1.5%	1.1	-3.1%	3.2%
COc1ccc(Br)cc1CNC(=O)CCNC(=O)Cn1ccc2ccccc2c1=O	2.1%	0.5	-3.4%	-1.5%
O=C(c1cnc2n(c1=O)CCS2)N(C1CCCCC1)C1CCCCC1	-2.2%	-13.8	-3.6%	0.0%
N/C(=N\O)c1ccc([N+](=O)[O-])s1	0.2%	-9.5	-2.6%	1.4%
Cn1c(C(=O)NCCc2c[nH]c3ccccc23)cc2sccc21	-4.3%	-5.2	-57.1%	1.2%
CCNC(=O)c1oc2c(c1C)C(=O)CC(C)(C)C2	-1.7%	?	-3.1%	-5.4%
CN(C)CCCN(C(=O)/C=C/c1cccs1)c1nc2c(F)cccc2s1	2.7%	-13.4	?	-7.4%
COc1ccc(CC(=O)NCc2cccs2)cc1OC	-2.1%	-3.9	-8.9%	11.7%
Cc1ccc(CCNC(=O)CC(C)CC2=NS(=O)(=O)c3ccccc3N2)cc1 (stereo not given)	4.5%	.	0.3%	-1.9%
CCN(C(=O)COC(=O)c1ccc([N+](=O)[O-])o1)C1CCCCC1	-0.3%	.	.	1.6%
CC(NC(=O)CN(C)S(=O)(=O)c1cnc[nH]1)c1ccccc1 (stereo not given)	-2.4%	-8.0	3.2%	8.1%
COc1ccc2ccccc2c1/C=N/NC(=O)c1ccccc1F	-1.7%	.	-3.4%	20.7%
Nc1cc(=O)[nH]c(SCC(=O)Nc2ccc(S(=O)(=O)N3CCCC3)cc2)n1	-1.1%	.	.	-8.2%
Nc1ccccc1C(=O)NC1CCCCNC1=O (stereo not given)	-0.3%	-5.9	-0.1%	-0.5%
CC[N+](CC)(CC#Cc1ccccc1)CC#Cc1ccccc1	0.2%	-2.9	?	-0.9%
O=C(C=Cc1cccnc1)c1ccccc1	-3.8%	.	.	1.6%
C/C(=N\NC(=O)c1c([N+](=O)[O-])c(C)nn1C)c1ccc(NC(=O)C2CCCC2)cc1	4.3%	.	4.0%	32.7%
CC(=O)N(C)c1ccc(N=Cc2cc3c(cc2[N+](=O)[O-])OCO3)cc1	-3.3%	.	.	0.7%
O=C(CSCc1ccc([N+](=O)[O-])cc1)N/N=C/c1ccncc1	0.5%	-1.5	-0.5%	-7.0%
COc1ccc(OC)c(S(=O)(=O)ON2C(=O)c3ccccc3C2=O)c1	-3.5%	.	1.8%	1.0%
O=C(NCC(=O)N(c1cccc(F)c1)C(C(=O)NCC1CCCO1)c1ccccc1)c1ccco1 (stereo not given)	-2.1%	-2.4	2.4%	8.3%
Cc1csc(SCc2ccccc2C(=O)O)n1	-0.1%	-1.8	-14.9%	-3.7%
CCOc1cc(CNC)ccc1OCC(=O)NC(C)(C)C	0.2%	0.5	0.9%	?
COc1ccc(NC(=O)CN(C)C(=O)c2ccccc2OCC(=O)Nc2cccc(C(F)(F)F)c2)cc1	2.4%	.	.	9.5%
CN(Cc1ccccc1)C(=O)CSc1nc2c(c(C(F)(F)F)n1)CCc1ccccc1-2	1.8%	.	.	14.2%
COc1ccccc1NC(=O)C(C)NC(c1ccccc1)c1ccccc1 (stereo not given)	-4.1%	.	-10.5%	4.0%
Cc1ccc(NC(=S)NNC(=S)Nc2ccc(C)cc2)cc1	-2.9%	.	.	-8.8%
Clc1ccc(CSc2nnc(-c3cccnc3)n2Cc2ccco2)c(Cl)c1	-0.3%	-5.0	-6.9%	-5.7%
C=C(CC1([C@@H](NP(=O)(c2ccccc2)c2ccccc2)[C@H]2C[C@@H]2CCCC)CC1)c1ccccc1	0.1%	-10.1&-7.3	-9.7%	-3.8%
O=C(NC(=S)Nc1ccc(Cl)cn1)c1cccs1	-1.5%	1.4	-37.0%	-0.9%
CC(C)NS(=O)(=O)c1ccc(OCC(=O)N(C)Cc2ccccc2)cc1	-3.2%	4.4	-0.7%	2.0%
O=S1(=O)N(Cc2ccccc2F)CCCN1Cc1c(F)cccc1Cl	-1.7%	.	-5.8%	-0.4%
O=C(CSc1nnc(NC(=O)C2CCC2)s1)Nc1ccccc1	?	.	-2.2%	-9.8%
O=C1c2ccccc2C(=O)c2c1oc(C(F)(F)F)c2C(=O)c1ccccc1	6.0%	-10.7	-1.4%	7.7%
C=CCNC(=S)Nc1ccc(Cl)c(S(=O)(=O)N2CCOCC2)c1	0.8%	-1.1	0.1%	-1.2%
COc1cccc(/C=C/C(=O)NNC(=O)c2ccccc2)c1OC	?	.	.	15.7%
O=C1c2ccccc2NC(c2ccc(O)cc2)N1c1ccccc1 (stereo not given)	-0.1%	.	-32.2%	26.9%
Cc1onc(-c2ccccc2Cl)c1C(=O)c1ccccc1	1.5%	7.8	6.7%	-1.6%
CCOC(=O)C1(Cc2cccc(OC)c2)CCCN(C(=O)CNC(C)=O)C1 (stereo not given)	-0.1%	.	-47.7%	-15.0%

Structural class, those above with four or more nitrogen atoms
SMILES	Rango-impB inh	GLA inh pH 4.5	miR-21 reporter	Rango dissoc inh
Cn1c(CSCC(=O)Nc2ccccc2)nnc1SCc1ccccc1	0.0%	-4.3	-6.8%	-0.1%
Cc1cc(C)n2nc(CCCCc3nc4nc(C)cc(C)n4n3)nc2n1	.	-4.1	-1.8%	.
COc1ccc(CNc2nnnn2C)c(OC)c1	-4.6%	.	0.2%	?
Cc1nn(Cc2ccccc2)c(C)c1NC(=O)c1cc(-c2ccco2)on1	?	-6.2	-2.4%	6.7%
Cc1nonc1CN(C)C(=O)CC1C(=O)NCCN1Cc1ccc(F)c(F)c1 (stereo not given)	0.3%	-2.8	?	-4.6%
CCn1c(SC(C)C(=O)O)nnc1-c1cccnc1 (stereo not given)	-4.5%	-13.1	0.9%	-15.9%
CC(=O)N1CCC2(CC1)C/C(=N\NC(=S)Nc1ccccc1F)c1cc(O)ccc1O2	?	-11.8	-15.3%	-17.6%
CC(NC(=O)CN(C)S(=O)(=O)c1cnc[nH]1)c1ccccc1 (stereo not given)	-2.4%	-8.0	3.2%	8.1%
Nc1cc(=O)[nH]c(SCC(=O)Nc2ccc(S(=O)(=O)N3CCCC3)cc2)n1	-1.1%	.	.	-8.2%
C/C(=N\NC(=O)c1c([N+](=O)[O-])c(C)nn1C)c1ccc(NC(=O)C2CCCC2)cc1	4.3%	.	4.0%	32.7%
O=C(CSCc1ccc([N+](=O)[O-])cc1)N/N=C/c1ccncc1	0.5%	-1.5	-0.5%	-7.0%
Cc1ccc(NC(=S)NNC(=S)Nc2ccc(C)cc2)cc1	-2.9%	.	.	-8.8%
Clc1ccc(CSc2nnc(-c3cccnc3)n2Cc2ccco2)c(Cl)c1	-0.3%	-5.0	-6.9%	-5.7%
O=C(CSc1nnc(NC(=O)C2CCC2)s1)Nc1ccccc1	?	.	-2.2%	-9.8%
